Assay outcomes from PubChem.
TRPV1 PAM: potentiators of human vanilloid receptor 1 (TRPV1). Q8NER1. TRPV1-expressing cells, Fluo-8 calcium influx, capsaicin EC20 potentiation; host cell line not named in the record; control for the full effect not named in the record. potentiation, % at 8.33 µM. actives 0.02% (n = 320,000). AID 540277; active means potentiation above 80%; inconclusive means 30% to 80%; inactive means below 30%; note: 0% is about no effect
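Cells expressing TRPV1 were dye-loaded with Fluo-8 and read kinetically: 10 s baseline, 3 min after compound (agonist portion), then 2 min after EC20 capsaicin (allosteric enhancer portion). Calcium-bound dye fluorescence at 480/520 nm.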
CtBP-E1A inh: blocks the CtBP interaction with E1A | AlphaScreen GST-E1A/His-CtBP binding, 1536-well; hits give low values; control for the full effect not named in the record | activity change, % (test concentration not listed) | actives 0.49% (n = 340,000); in the data active means activity change below about -65%; inconclusive means about -30% to -65%; inactive means above about -30%; note: % is set by controls: 0 for no effect and ±100 for the full control effect; compound concentration not given in the record
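Homogeneous bead-based format: GST-tagged E1A captured on glutathione donor beads, His-tagged CtBP on nickel acceptor beads; compounds precede bead addition by 2 h at 37 °C.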
TRPML1 inh: blocks the human TRPML1 channel. TRPML1-inducible cells, Ca2+ dye fluorescence, FDSS; hits give low values; inhibition of EC80 agonist-evoked calcium signal. AID 624415. Q9GZU1. actives 0.02% (n = 390,000). activity change, negative = inhibition, % (concentration not given with the values); in the data active means activity change below about -50%; inconclusive means about -30% to -50%; inactive means above about -30%;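 note: stimulus is agonist 54-4 at its EC80 concentration; % is set by controls: 0 for no effect and ±100 for the full control effect; compound concentration not given in the record; the text of the record puts the active cut at -80%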
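TRPML1-DL cells, Tet-induced overnight (~16 h, 37 °C) at 1,500 cells/well, were loaded with Ca8 no-wash dye plus quencher for 45-90 min at room temperature. Compounds were pinned during FDSS kinetic reading; agonist 54-4 at EC80 (4 uM final) then added.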
Six1-Eya2 inh: inhibitors of human Six1/Eya2 interaction. Q15475+O00167. actives 0.56% (n = 360,000). activity change, % (test concentration not listed). AlphaScreen GST-Six1/His-Eya2 binding, biochemical; hits give low values; control for the full effect not named in the record; in the data active = activity change below about -65%; inconclusive = about -30% to -65%; inactive = above about -30%; note: % is set by controls: 0 for no effect and ±100 for the full control effect; compound concentration not given in the record
Target sequence (O00167 whole entry, looked up): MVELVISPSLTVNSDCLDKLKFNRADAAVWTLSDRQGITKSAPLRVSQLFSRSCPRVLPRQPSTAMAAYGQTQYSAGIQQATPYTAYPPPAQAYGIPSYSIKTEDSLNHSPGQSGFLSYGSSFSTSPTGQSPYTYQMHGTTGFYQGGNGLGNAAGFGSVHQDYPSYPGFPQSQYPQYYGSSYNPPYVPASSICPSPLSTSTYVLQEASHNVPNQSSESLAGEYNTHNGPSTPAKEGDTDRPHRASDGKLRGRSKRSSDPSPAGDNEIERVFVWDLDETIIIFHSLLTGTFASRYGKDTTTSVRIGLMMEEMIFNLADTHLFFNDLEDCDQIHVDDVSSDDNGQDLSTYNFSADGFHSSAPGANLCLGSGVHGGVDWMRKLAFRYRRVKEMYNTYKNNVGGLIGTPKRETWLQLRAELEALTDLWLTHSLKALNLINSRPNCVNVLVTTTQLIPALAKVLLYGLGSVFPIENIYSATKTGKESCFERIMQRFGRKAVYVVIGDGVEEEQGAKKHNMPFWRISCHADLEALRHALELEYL
Target sequence (Q15475 whole entry, looked up): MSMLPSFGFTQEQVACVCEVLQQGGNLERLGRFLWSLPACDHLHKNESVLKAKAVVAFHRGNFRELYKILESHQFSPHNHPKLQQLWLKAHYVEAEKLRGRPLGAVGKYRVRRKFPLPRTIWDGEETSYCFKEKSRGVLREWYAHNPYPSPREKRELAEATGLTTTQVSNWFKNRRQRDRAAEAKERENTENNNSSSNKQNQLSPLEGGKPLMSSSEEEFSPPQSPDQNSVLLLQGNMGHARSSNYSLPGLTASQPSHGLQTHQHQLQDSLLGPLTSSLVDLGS
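Homogeneous AlphaScreen proximity assay pairing GST-Six1 with His-tagged Eya2 (added as 5X mix: 250 nM and 500 nM) in 50 mM Tris pH 8.0, 300 mM NaCl, 1 mM TCEP. Glutathione donor and nickel acceptor beads; 1 h, 37 °C, dark.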
TRPML1 ag: activates the human TRPML1 channel; actives 0.12% (n = 410,000); TRPML1-expressing cells, Ca2+ dye fluorescence, FDSS; host cell line not named in the record; reference of the full effect not given here; activation, % (concentration not given with the values); Q9GZU1; in the data active = activation above about 50%; inconclusive = about 30% to 50%; inactive = below about 30%; note: 0% is about no effect; the text of the record puts the active cut at 80%
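Kinetic FDSS Ca2+ read in Tet-induced TRPML1-DL cells (ABD Ca8 dye plus quencher, 45-90 min RT loading): baseline, then compound, then 110 s agonist window; EC80 agonist 54-4 at 4uM final added afterwards for a 110 s antagonist window.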
D2 potentiator: positive allosteric modulators of human D2 dopamine receptor. AID 624464. DiscoveRx D2 beta-arrestin cells, luminescence, 90 min; 100% = 57 uM dopamine signal. actives 0.23% (n = 360,000). P14416. potentiation, % (test concentration not listed); active = potentiation of 50% or more; inconclusive = 30% to 50%; inactive = 30% or less;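 note: compound concentration not given in the record; tested on top of an EC20 dose of dopamine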
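PathHunter D2 cells, attached overnight at 37 deg C, received compound in DMSO plus dopamine at EC20 (50 nM final) for 90 min at 37 deg C. Beta-arrestin recruitment was read as luminescence after 1 h with detection reagent at ambient temperature.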
Active calls of the source: *; ? = inconclusive; · = not tested or not shown.

smiles,TRPV1 PAM,CtBP-E1A inh,TRPML1 inh,Six1-Eya2 inh,TRPML1 ag,D2 potentiator
CC(C)(C)OC(=O)N1CCC(c2cc(=O)n3[nH]cc(C(=O)NC4CCCC4)c3n2)CC1,-17,-16,-3,10,-0.5,-2
CC(=O)N1CCN(C(c2ccccc2)c2ccccc2)CC1,-26,-8,-2,-9,1.3,-6
O=C(CC1CC2CCC1C2)NCCc1ccc(Cl)cc1 (configuration not stated),-7,9,3,2,-0.6,3
CCN(CC)c1ccc(/C=C(\C#N)C(N)=S)cc1,5,-6,·,-8,·,-22
COc1ccc(CCNS(=O)(=O)c2cn(C)nc2C)cc1OC,2,-1,-8,22,-0.3,-4
O=C(Cc1cc2ccccc2o1)NCc1ccc(F)cc1,-18,·,8,22,2.6,-2
CN1C(=O)C2(OCCCO2)c2cc(Cl)ccc21,0,7,11,0,1.2,-26
O=c1[nH]c2c(c(=O)[nH]1)CCC2,-2,4,-13,3,-0.3,0
Cc1cccc(NC(=O)c2n[nH]c([N+](=O)[O-])c2Br)c1C,10,-5,17,-8,0.7,-8
Cc1noc(C)c1CSc1ccccc1C(=O)N1CCN(c2ccccc2)CC1,-3,-2,6,-9,-0.6,-25
CC(=O)c1ccc(S(=O)(=O)Nc2cccc(S(=O)(=O)NC3=NCCC3)c2)cc1,2,-11,-9,5,1.0,4
O=C(NNC(=O)C12CC3CC(CC(C3)C1)C2)c1ccco1,-12,2,7,-4,-0.8,-6

New compounds follow.
smiles,TRPV1 PAM,CtBP-E1A inh,TRPML1 inh,Six1-Eya2 inh,TRPML1 ag,D2 potentiator
CCOc1ccc(NS(=O)(=O)c2ccc(C(=O)N(CC)CC(=O)NCc3cccs3)cc2)cc1,3,-11,45,-5,0.8,-11
COc1cccc(NC(=S)NN=C2CCCCCC2)c1,0,-4,4,-4,-0.2,-9
CCOC(=O)C1=C(COC(=O)C(C)(C)Oc2ccc(Cl)cc2)NC(=O)NC1C (configuration not stated),-10,8,-3,-1,0.6,-11
CCOc1ccc(C(=O)NCC(=O)NCCCSc2ccccc2)cc1OCC,4,3,-3,-5,1.2,-2
COc1cccc(NC(=O)CN(C)C(=O)c2cccc(NS(=O)(=O)c3ccccc3)c2)c1,3,1,31,0,3.1,-2
COc1ccc(C(=O)N2CCN(C)C(=O)[C@@H]2C)cc1OC1CCN(C(C)=O)CC1,1,6,-7,3,-0.6,0
CC[C@@H]1CCCCc2ccccc2[C@H](C(=O)C[C@@H](O)CC(C)=O)OC1=O,·,-16,-23,6,0.7,-13
C=CCC(=O)NC1CCCc2c1cnn2-c1cc(F)cc(F)c1 (configuration not stated),-4,5,-15,5,-0.2,-2
Cc1nn2c(-c3ccc(Cl)cc3)nnc2s1,9,1,11,-1,-0.2,-8
COc1cc(OC)cc(C(=O)NC(C(=O)NCCN(C)C)C23CC4CC(CC(C4)C2)C3)c1 (configuration not stated),-15,7,10,-4,0.5,-10
O=C(Nc1ccccc1N1CCOCC1)C1(c2ccc(Cl)cc2)CCC1,-5,6,-7,6,23,-1
Cc1ccccc1NC(=O)CN1C(=O)COc2ccc(S(=O)(=O)N3CCCC3)cc21,-4,-3,-4,1,-1.1,-3

(more compounds)
smiles,TRPV1 PAM,CtBP-E1A inh,TRPML1 inh,Six1-Eya2 inh,TRPML1 ag,D2 potentiator
NC(=O)c1ccc(NC(=O)CNC(=O)c2sc3ccccc3c2Cl)cc1,-11,-5,1,-3,-0.4,-5
CC(=O)NC(Cc1ccc(F)cc1)C(=O)NC1CCN(C(=O)Nc2cccc(C)c2)CC1 (configuration not stated),-1,4,-2,9,-0.4,-6
NC(CCc1ccccc1)c1csc(Nc2ccc(C(=O)c3ccccc3)cc2)n1 (configuration not stated),·,8,-14,10,0.5,-1
O=C(C1=C[C@H](c2ccc(Br)cc2)C[C@H](OCc2ccc(CO)cc2)O1)N1CCOCC1,-13,4,5,3,0.0,-2
O=C(NCc1cccnc1)c1cc(C2CCCCN2C(=O)c2ccc3c(c2)CCO3)on1 (configuration not stated),·,-9,·,5,-0.7,0
Cc1ccc2c(c1)NCCO2,?,-5,12,-5,2.5,2
O=C1/C(=C/c2cccnc2)SC(=S)N1c1ccc(F)cc1,-1,17,6,6,1.2,1
O=C(CN1C(=O)/C(=C/c2ccccc2F)Sc2ccccc21)NCc1cccnc1,-17,-14,-8,-4,1.2,-8
COc1ccc(C(=C(CC(=O)O)C(=O)OC(C)(C)C)c2cc(OC)c(OC)c(OC)c2)cc1OC,·,7,11,-2,0.2,-6
CCN(CC)C(=O)N(CC)Cc1ccccc1,-4,·,9,6,0.7,-7
CCN(C(=O)COC(=O)/C=C/c1cccc(Br)c1)C1CCS(=O)(=O)C1 (configuration not stated),21,?,19,5,0.4,-4
CCCCN(C(=O)COC(=O)c1sccc1C)c1c(N)n(CCC)c(=O)[nH]c1=O,·,4,7,-5,-0.5,-1

(continued)
smiles,TRPV1 PAM,CtBP-E1A inh,TRPML1 inh,Six1-Eya2 inh,TRPML1 ag,D2 potentiator
Fc1ccc(NC(=S)Nc2cccnc2)c(Cl)c1,16,3,26,-2,0.4,-1
COc1ccc(Br)c(C(=O)N2CCN(S(=O)(=O)c3cccs3)CC2)c1,-3,2,-5,1,-0.7,-3
Cc1cc2ccccc2nc1SCC(=O)N1c2ccccc2CC1C (configuration not stated),4,-2,1,4,-0.3,-10
CC(OC(=O)c1ccc2ncsc2c1)C(=O)Nc1ncc(Cl)cc1Cl (configuration not stated),-4,9,11,1,-0.7,-9
CC(C)CNC(=O)C1CCN(c2ccc(S(=O)(=O)N3CCOCC3)cc2Cl)CC1,-40,-4,11,1,0.5,-5
CCCn1nnc(NC(=O)c2ccc(-c3cc(Cl)ccc3Cl)o2)n1,15,·,7,7,0.2,-11
CN(C)c1nc(NCc2ccccc2)nc(SCC(=O)Nc2ccccc2)n1,25,7,-8,-3,2.9,-6
COC(=O)c1c(C)oc2ccc(NS(=O)(=O)c3cc(OC)ccc3OC)cc12,?,2,18,-8,0.6,0
CCOc1cc2c(C#N)c(N3CCOCC3)nc(N)c2c(N)n1,-2,-15,70,-1,1.0,4
CN1CCc2c(sc3nc(SCC(=O)NCc4ccco4)n(-c4ccccc4)c(=O)c23)C1,17,·,2,-5,3.5,-8
Cc1n[nH]c(=O)c2c(NC(=O)CSc3cc(Cl)ccc3Cl)oc(C)c12,14,5,-2,-2,2.5,-3
O=C(NCCCn1ccnc1)c1ccc(C(F)(F)F)cc1,-4,·,14,4,1.0,-10

More entries follow.
smiles,TRPV1 PAM,CtBP-E1A inh,TRPML1 inh,Six1-Eya2 inh,TRPML1 ag,D2 potentiator
COc1cc(/C=C/C(=O)O)cc(S(=O)(=O)Nc2cccc(SC)c2)c1OC,7,3,0,-6,0.9,-2
CC(C)[C@H](NC(=O)c1ccco1)C(=O)N(C)Cc1c(F)cccc1Cl,1,3,17,-2,-1.2,-4
COc1ccc(CN(Cc2cc3cc4c(cc3[nH]c2=O)OCO4)C(=O)NC2CCCCC2)cc1,10,5,5,4,0.3,14
COc1ccc(C(=O)NCc2nnc(SCC(=O)NCc3ccco3)o2)cc1OC,19,·,-1,-11,0.5,-4
CCC(=O)N1c2ccccc2-c2nnc(SC)nc2OC1c1ccc(N(C)C)cc1 (configuration not stated),16,-5,-1,-11,-0.5,-4
COc1cccc(CNC(=O)c2ccccc2-c2ccccc2C(=O)O)c1,21,-6,47,6,-0.1,-9
CC(=O)c1cccc(NC(=O)C2CCCN(S(=O)(=O)c3ccc(F)cc3)C2)c1 (configuration not stated),-7,0,8,4,-1.0,-5
COc1ccc(NC(=O)Nc2nc3ccccc3s2)cc1,10,4,6,-13,2.3,-1

In another format: 16 of the compounds above.
The line under a structure holds: TRPV1 PAM | CtBP-E1A inh | TRPML1 inh | Six1-Eya2 inh | TRPML1 ag | D2 potentiator
CC(OC(=O)c1ccc2ncsc2c1)C(=O)Nc1ncc(Cl)cc1Cl (configuration not stated)
→ -4 | 9 | 11 | 1 | -0.7 | -9
CC(C)CNC(=O)C1CCN(c2ccc(S(=O)(=O)N3CCOCC3)cc2Cl)CC1
→ -40 | -4 | 11 | 1 | 0.5 | -5
CCCn1nnc(NC(=O)c2ccc(-c3cc(Cl)ccc3Cl)o2)n1
→ 15 | · | 7 | 7 | 0.2 | -11
CN(C)c1nc(NCc2ccccc2)nc(SCC(=O)Nc2ccccc2)n1
→ 25 | 7 | -8 | -3 | 2.9 | -6
COC(=O)c1c(C)oc2ccc(NS(=O)(=O)c3cc(OC)ccc3OC)cc12
→ ? | 2 | 18 | -8 | 0.6 | 0
CCOc1cc2c(C#N)c(N3CCOCC3)nc(N)c2c(N)n1
→ -2 | -15 | 70 | -1 | 1.0 | 4
CN1CCc2c(sc3nc(SCC(=O)NCc4ccco4)n(-c4ccccc4)c(=O)c23)C1
→ 17 | · | 2 | -5 | 3.5 | -8
Cc1n[nH]c(=O)c2c(NC(=O)CSc3cc(Cl)ccc3Cl)oc(C)c12
→ 14 | 5 | -2 | -2 | 2.5 | -3
O=C(NCCCn1ccnc1)c1ccc(C(F)(F)F)cc1
→ -4 | · | 14 | 4 | 1.0 | -10
COc1cc(/C=C/C(=O)O)cc(S(=O)(=O)Nc2cccc(SC)c2)c1OC
→ 7 | 3 | 0 | -6 | 0.9 | -2
CC(C)[C@H](NC(=O)c1ccco1)C(=O)N(C)Cc1c(F)cccc1Cl
→ 1 | 3 | 17 | -2 | -1.2 | -4
COc1ccc(CN(Cc2cc3cc4c(cc3[nH]c2=O)OCO4)C(=O)NC2CCCCC2)cc1
→ 10 | 5 | 5 | 4 | 0.3 | 14
COc1ccc(C(=O)NCc2nnc(SCC(=O)NCc3ccco3)o2)cc1OC
→ 19 | · | -1 | -11 | 0.5 | -4
CCC(=O)N1c2ccccc2-c2nnc(SC)nc2OC1c1ccc(N(C)C)cc1 (configuration not stated)
→ 16 | -5 | -1 | -11 | -0.5 | -4
COc1cccc(CNC(=O)c2ccccc2-c2ccccc2C(=O)O)c1
→ 21 | -6 | 47 | 6 | -0.1 | -9
CC(=O)c1cccc(NC(=O)C2CCCN(S(=O)(=O)c3ccc(F)cc3)C2)c1 (configuration not stated)
→ -7 | 0 | 8 | 4 | -1.0 | -5
